Screening results deposited in PubChem by ICCB-Longwood Screening Facility, Harvard Medical School.
AID504770: growth inhibitors of E. coli YBA685 in a screen for V. cholerae RctB (chromosome II replication) inhibitors | E. coli YBA685 rctB-dependent plasmid, OD600 growth, 3 h; stronger effect = lower value | z-score (no concentration beside the values) | 0.27% of 130,000 active | AID 504770;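 active means z-score under -2 on both plates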;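 further: wells of about 30 µL received 100 nL stock; score is relative to mean and SD of the test wells; the first replicate is given; strong numbers were not always called active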
CapD inh: blocks the Bacillus anthracis CapD enzyme. purified CapD enzyme, fluorescence intensity read-out; stronger effect = lower value; some hits fall short of the stated cut. z-score (no concentration beside the values). 0.23% of 140,000 active. AID 492967;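 active means z-score under -4 in either of two replicates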;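 further: stock transfer was 100 nL into about 40 µL; score is relative to mean and spread of the plate; one replicate is shown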
* hit, by the source's call; · = no result given; & = joins results of further samples.

Below each compound – AID504770	CapD inh
CC(C)Sc1nc2ccccc2n2cnnc12
    -0.65	0.58
Clc1ccc(Cn2cc(-c3ccncc3)cn2)c(Cl)c1
    ·	1.41
COc1ccc(Br)cc1CN1CCN(C2CCCCCC2)CC1
    0.05	0.165
Nc1nc(N)nc(CSc2nnc(-c3ccccc3)n2-c2ccc(F)cc2)n1
    -0.05	·
COc1cccc(/C=C2/SC(=Nc3cc(C)cc(C)c3)NC2=O)c1O
    ·	-0.43
CC(C)(C)c1ccc(-c2nc(-c3cccnc3)no2)cc1
    -0.2	-0.14
COc1cccc(OC)c1C(=O)Oc1ccc2c(=O)c(Oc3ccccc3Br)coc2c1
    ·	-0.685
O=C(CN1CCOc2ccccc21)N1CCC2(CC1)OCCO2
    1.3	0.255
Clc1ccc(-c2csc(Cc3ccccc3Cl)n2)cc1
    ·	0.23
CC(=O)N1c2ncnn2C(c2ccc(Cl)cc2)CC1c1ccccc1 (configuration not stated)
    1.3	·
COc1ccc(C2CC(c3cc(Cl)ccc3O)=NN2)cc1OC (configuration not stated)
    -0.05	6.5
Cc1ccc(-c2cc(-c3ccc(Cl)c(Cl)c3)[nH]c(=O)c2C#N)cc1
    ·	5.6
FC(F)(F)c1cccc(-c2cc3ccccc3nc2Oc2ccccc2)c1
    ·	0.78
CC(C)C(C(=O)O)N1C(=O)C2C3c4ccccc4C(c4ccccc43)C2C1=O (configuration not stated)
    ·	-0.19
O=C(NCCc1ccc(Oc2ccccc2)cc1)c1ccc(-n2nc(-c3ccccc3)cc2-c2ccccc2)cc1
    ·	-0.915
O=C(NO)c1sc2ccccc2c1Cl
    -1.4	0.185
CCOC(=O)c1ccc2nc(CCC(=O)NC3CCC(C)CC3)c(=O)n(CC)c2c1 (configuration not stated)
    0.45	·
O=C(OC1CS(=O)(=O)CC1OC(=O)c1ccccc1)c1ccccc1 (configuration not stated)
    -1.9	0.345
O=C(O)c1ccc(NCc2cccnc2)cc1
    -0.95	0.325
O=C(Nc1nc(-c2ccc3c(c2)OCO3)cs1)C1CC1
    -1	0.235

(further entries)
Below each compound – AID504770	CapD inh
Cc1ccccc1-c1ncc(-c2ccc(Br)cc2)o1
    0	-0.25
CCNS(=O)(=O)c1cccc2c(N)cccc12
    -0.45	-0.815
O=S(=O)(NC1CCc2ccccc21)c1ccc(-n2cnnn2)cc1 (configuration not stated)
    0.55	-0.01
Nc1ncc(Cc2cccc(Cl)c2)s1
    -0.9	-0.085
O=C(CCS(=O)(=O)c1ccccc1)N1CCN(c2ccccc2)CC1
    0.2	·
CCCCCCN1C(=O)C(=O)/C(=C(\O)c2ccccc2)C1c1ccc(F)cc1 (configuration not stated)
    ·	0.81
C(=N\c1ncn[nH]1)/c1ccccc1
    0.7	0.34
O=C(Cc1csc2nc(-c3ccccc3)cn12)N1CCc2ccccc21
    0.6	0.02
COc1cc(C(SCC(=O)O)SCC(=O)O)cc(OC)c1OC
    ·	0.08
COc1ccc(Br)c(-c2nnc(CS(=O)(=O)c3ccccc3)o2)c1
    0	0.35
C=CCn1c(N)cc(=O)nc1SC(C)C(=O)Nc1ccc(C)cc1 (configuration not stated)
    0.1	-0.045
C=CCSc1nnc(-c2cc(OCC(F)(F)F)nc(OCC(F)(F)F)c2)n1Cc1ccco1
    -0.8	-0.28
CCOc1ccc2nc(SCC(=O)N(C)C3CCCCC3)c(C#N)cc2c1
    -0.4	·
Cc1ccc(OC(=O)CCC(=O)N2CCN(C(=O)CCC(=O)Oc3ccc(C)cc3)CC2)cc1
    0.85	·
CCCc1noc2c1/C(=N\O)CC(C)(C)C2
    -0.65	0.07
CN(CC(=O)Nc1ccc2[nH]c(=O)[nH]c2c1)Cc1ccccc1
    0.3	·
OC1(c2ccc(Br)cc2)CN(c2ccccc2)C2=[N+]1CCCS2 (configuration not stated)
    -1.25	-0.545&-0.24
CCOC(=O)C1=C(N)Oc2c(c(=O)oc3ccccc23)C12C(=O)N(CC(=O)OC)c1ccccc12 (configuration not stated)
    -0.25	2.08
Cc1ccc(/C=C2/C(=O)N=C(N)N2C)s1
    -1.25	0.34
CCN(CC)S(=O)(=O)c1ccc(C(=O)Nc2cccc(C)c2)cc1
    -0.1	-0.205

New compounds follow:
Below each compound – AID504770	CapD inh
CC(SCC(=O)O)c1nc2ccccc2[nH]1 (configuration not stated)
    -1.95	·
CCNc1ncnc2c1cnn2C
    -0.85	-0.965
CCSc1nc2c(c(=O)n1-c1ccc(F)cc1)SCC2
    0.25	·
CC(C)(C)c1nc2c(o1)NC(N)=C(C(N)=O)C2c1ccc(OCC#N)cc1 (configuration not stated)
    -0.95	0.07
O=C(c1ccc2snnc2c1)N1CCOCC1
    -0.6	-0.105
O=C(CSC1CCS(=O)(=O)C1)OCc1c(Cl)cccc1Cl (configuration not stated)
    1.15	·
N#CC1=C(N)N(c2ccccc2)C2=C(C(=O)CCC2)C1c1ccccc1 (configuration not stated)
    -0.25	-0.27
O=C(Nc1nc2ccccc2n1CCOc1ccccc1)c1ccccc1Cl
    ·	0.15
O=C1CCCC(Cn2cncn2)C1 (configuration not stated)
    -1.05	0.25
CCn1c(CN2CCCCCC2=O)n[nH]c1=S
    -1	·
CC1(CC(=O)N=Nc2c(O)[nH]c3ccccc23)OCCO1
    -0.6	-1.94
COc1c(C(=O)O)cnc2cc(Cl)ccc12
    -0.75	·
Cc1ccc(C=N/C(C#N)=C(\N)C#N)cc1
    0.95	1.14
COC(=O)c1scc(C)c1NC(=O)CSc1ccc(Cl)cc1
    -0.5	-0.15
CCOC(=O)C1=CN(c2ccc(F)cc2)C=C(C(=O)OCC)C1c1cc(OC)c(OC)c(OC)c1
    ·	-0.755
Cc1nn(C)c(C)c1NC(=O)/C(C#N)=C\N(C)C
    0.25	0.81
CC1=C(C(=O)Nc2ccc(C)cc2)C(c2ccc(Cl)cc2Cl)NC(=O)N1 (configuration not stated)
    ·	0.035
CCOc1cc(C(=O)NCCc2cc3c(C)ccc(C)c3[nH]c2=O)cc(OCC)c1OCC
    -1	-0.245
C=CCN(c1ccc(C(=O)Nc2ccc3c(c2)OCO3)cc1)S(C)(=O)=O
    -0.7	-0.85
CCOc1ccc(NC(=O)CSCCn2c(C)csc2=O)cc1
    0.05	·

Overlap with the part before: four entries, then new ones.
canonical_smiles,AID504770,CapD inh
CC1=C(C(=O)Nc2ccc(C)cc2)C(c2ccc(Cl)cc2Cl)NC(=O)N1 (configuration not stated),·,0.035
CCOc1cc(C(=O)NCCc2cc3c(C)ccc(C)c3[nH]c2=O)cc(OCC)c1OCC,-1,-0.245
C=CCN(c1ccc(C(=O)Nc2ccc3c(c2)OCO3)cc1)S(C)(=O)=O,-0.7,-0.85
CCOc1ccc(NC(=O)CSCCn2c(C)csc2=O)cc1,0.05,·
O=C(Cn1c(=O)oc2ccccc21)N1CCCCC1,-0.25,·
COc1cc(C(=O)Nc2ccc3c(c2)N(C(=O)CCN(C)C)c2ccccc2CC3)cc(OC)c1OC,·,5.67
NC(=S)CS(=O)(=O)Cc1ccco1,·,-0.13
Cc1ccc(C(CNC(=O)COc2ccccc2)N2CCN(C)CC2)cc1 (configuration not stated),-1.2,·
Cc1cccc(NC(=O)Cn2c(=O)oc3ccccc32)c1,0.65,0.59
COC(=O)c1sccc1N=CC1=C(O)CC(c2cccs2)CC1=O (configuration not stated),0.3,-0.295
COc1ccc(C(=O)CSc2n[nH]c(=O)n2C2Cc3ccccc3C2)cc1,0.2,-1.19
CCOC(=O)c1cc(C(=O)c2ccccc2)[nH]c1Nc1ccc(Cl)cc1,·,-0.555
Cc1cccc(OCC(=O)Nc2ccc3nc(N4CCCCC4)cc(C)c3c2)c1,·,0.695
COc1ccccc1C(=O)NCC(C)(C)CN=C1NS(=O)(=O)c2ccccc21,-0.75,·
O=C1NC(c2cccc(F)c2)/C(=C(/O)c2ccc(Br)cc2)C1=O (configuration not stated),·,-0.255
O=C(COC(=O)c1ccccc1)NCc1ccco1,-0.15,0.005
COc1cc(C(=O)NCc2ccc3c(c2)cc(C)n3C)cc(OC)c1OC,0.4,0.445
O=C(NNC(=O)c1csc(Cn2cnc(Cl)c2Cl)n1)OCc1c(F)cccc1Cl,·,0.195
CC(OC(=O)c1ccccc1)C(=O)NCc1ccc2c(c1)OCO2 (configuration not stated),-0.4,·
Ic1ccc(Nc2nc3nonc3n3cnnc23)cc1,·,-0.3
Cn1c2ccccc2c2nnc(S)nc21,·,-0.27
CCOC(=O)c1sc2nc(SCC(=O)Nc3ccc(OCC)cc3)n(Cc3ccco3)c(=O)c2c1C,·,-0.255
CCOC(=O)CSc1nc2c(c(=O)n1CC)C1(CCCCC1)Cc1ccccc1-2,·,-0.09
CC1CCCN(C(=O)CSCC(=O)Nc2nc(-c3cccs3)cs2)C1 (configuration not stated),-0.4,-0.775
COc1cc(/C=C2/N=C(c3ccccc3)OC2=O)cc(Br)c1OC(C)=O,·,1.52
COC(=O)C1=C(C(=O)OC)SC(=C2C(=S)C(C)(C)N(C(=O)CN3C(=O)c4ccccc4C3=O)c3ccccc32)S1,·,-0.57
Cc1ccccc1S(=O)(=O)N1CCOCC1,2.55,-0.19
Cc1cc(C)c2nc(NC(=O)CN3C(=O)CCC3=O)sc2c1,-0.1,-0.465
CS(=O)(=O)c1cnc(-c2ccc(OCc3ccc(Cl)cc3Cl)cc2)nc1-c1cccc(C(F)(F)F)c1,·,-0.705

Compound profiles, from the list above. Order of screens: AID504770 | CapD inh
Ic1ccc(Nc2nc3nonc3n3cnnc23)cc1 is listed with · | -0.3
CCOC(=O)c1cc(C(=O)c2ccccc2)[nH]c1Nc1ccc(Cl)cc1 is listed with · | -0.555
Cc1cccc(OCC(=O)Nc2ccc3nc(N4CCCCC4)cc(C)c3c2)c1 is listed with · | 0.695
Cc1cc(C)c2nc(NC(=O)CN3C(=O)CCC3=O)sc2c1 is listed with -0.1 | -0.465
O=C(NNC(=O)c1csc(Cn2cnc(Cl)c2Cl)n1)OCc1c(F)cccc1Cl is listed with · | 0.195

Remaining list, next part:
canonical_smiles,AID504770,CapD inh
O=C(COC(=O)c1ccccc1)Nc1ncc(Cl)cc1Cl,0.5,0.31
COC(=O)COC(=O)c1ccc(Oc2nc(OC)nc(N(C)C)n2)cc1,·,0.04
CN(Cc1ccccc1)C(=O)COC(=O)c1sc2ccccc2c1Cl,0.45,0.89
O=C(O)c1cccc(NC(=O)c2nccnc2C(=O)O)c1,-1,14.7
CNC(=O)N1CCC(C(=O)c2c(C)c(C)c(C)c(C)c2C)CC1,-0.75,-0.23
C=CCCOc1ccccc1C(N)=O,0.45,0.09
Cc1cccc(NC2=NC(=S)N(CC#N)C23CCCCC3)c1,·,-0.5
CN(C1CCS(=O)(=O)C1)S(C)(=O)=O (configuration not stated),0.85,·
O=C(NCCCN1CCCC1=O)c1ccc2c(c1)N(Cc1ccccc1F)C(=O)c1ccccc1S2(=O)=O,0.35,-0.155
Cc1ccc(NCc2nnc(SCC(=O)N3CCOCC3)o2)c(C)c1,-0.25,·
CCn1c(C)[n+](CC)c2ccc(S(=O)(=O)C(F)(F)F)cc21,0.3,0.19
COc1cc(C(=O)N(CCc2ccccc2)C2CC3CCC(C2)N3C)cc(OC)c1OC (configuration not stated),0.1,·
O=c1c(N2CCCC2)c(Cl)cnn1-c1ccccc1,2.2,-1.14
CCOc1ccc(NC(=O)C2CSC(c3ccncc3)=N2)cc1 (configuration not stated),-1.2,·
O=C(NC(=S)NC1CCCCC1NC(=S)NC(=O)c1ccco1)c1ccco1 (configuration not stated),-0.6,·
COc1ccc(C2=NC3Oc4c(C)cccc4C=C3C(=O)N2)c(OC)c1OC (configuration not stated),0.15,2.12
CCN1CN=C(SCc2ccc([N+](=O)[O-])cc2)NC1,·,-0.58
CCS(=O)(=O)N1CCC(NC(=O)c2cc(OC)cc(OC)c2)CC1,0.05,·
COC(=O)c1ccc(COC(=O)/C=C/c2c(C)nn(Cc3ccccc3)c2Cl)o1,1.9,·
CCC(=O)Nc1cc(C(=O)O)ccc1Sc1ccccc1,0.2,0.63
C=CCn1c(=O)c(C(=O)Nc2nc3ccc(Cl)cc3s2)c(O)c2ccccc21,·,-1.02
CCN(CC)S(=O)(=O)c1ccc2nc(NC(=O)c3cc(OC)c(OC)c(OC)c3)sc2c1,0,·
O=C(NC1CCCCC1)C1c2cccn2CC(=O)N1Cc1ccc2c(c1)OCO2 (configuration not stated),-1.3,-0.45
COc1ccc(-n2c(Cn3ncc4ccccc4c3=O)n[nH]c2=S)cc1,-0.35,0.44
CCOC(=O)c1cnn(CCOC(=O)c2ccco2)c1NC(=O)c1ccco1,1.5,-0.43

Other results follow.
canonical_smiles,AID504770,CapD inh
O=C(c1ccccc1)c1ccc2nc(Cl)c3nncn3c2c1,0.3,0.005
Cc1ccccc1NC(=O)c1c(C)nc(SCC(=O)c2ccc(O)c(O)c2)c(C#N)c1-c1cccnc1,·,-0.57
CCOC(=O)N1CCC(NC(=O)c2ccc(CS(=O)(=O)c3ccc(OC)cc3)o2)CC1,1.75,13.8
CC(C)(C)OC(=O)/C(C#N)=C/c1cccs1,-1,-1.52
CC(C)(C)C1CCc2c(sc3nc(-c4cccs4)oc(=O)c23)C1 (configuration not stated),-0.5,-0.76
CC(=O)NCc1nc2ccccc2n1C,-0.1,-0.015
CC(C)(C)c1ccc(NNC(=O)c2ccno2)cc1,-0.05,0.79
CCC(C)c1c(O)[nH]c(=S)[nH]c1=O (configuration not stated),-1.5,·
CC1CN(CN2C(=O)c3ccccc3C2=O)CC(C)O1 (configuration not stated),-0.75,0.05
Cc1ccc2[nH]c3c(c2c1)CCCC3,·,-0.46
O=C(C(c1ccccc1)c1ccccc1)N1CCN(C/C=C/c2ccccc2)CC1,·,0.31
Cc1cc([N+](=O)[O-])c[nH]c1=O,·,-2.59
Cc1ccc2nc(-c3cccc(NC(=O)COc4ccccc4)c3C)oc2c1,1.1,0.46
